Screens (PubChem)
AmpC nodet inh: inhibitors of E. coli AmpC beta-lactamase without detergent; AID 585; actives 1.8% (n = 71,000); Potency, µM (doses to about 28.7 µM), inactives show at the top dose activity change, negative = inhibition; AmpC nitrocefin hydrolysis, absorbance 480 nm, no detergent; potencies from a single point are estimates; P00811; active = falling curve, for most hits resting on a single point; inconclusive = weak or doubtful change; inactive = flat or rising curve; also: % of control where 0% means no effect; a quarter of the inactives give rising signals
Target sequence (P00811 whole entry, looked up): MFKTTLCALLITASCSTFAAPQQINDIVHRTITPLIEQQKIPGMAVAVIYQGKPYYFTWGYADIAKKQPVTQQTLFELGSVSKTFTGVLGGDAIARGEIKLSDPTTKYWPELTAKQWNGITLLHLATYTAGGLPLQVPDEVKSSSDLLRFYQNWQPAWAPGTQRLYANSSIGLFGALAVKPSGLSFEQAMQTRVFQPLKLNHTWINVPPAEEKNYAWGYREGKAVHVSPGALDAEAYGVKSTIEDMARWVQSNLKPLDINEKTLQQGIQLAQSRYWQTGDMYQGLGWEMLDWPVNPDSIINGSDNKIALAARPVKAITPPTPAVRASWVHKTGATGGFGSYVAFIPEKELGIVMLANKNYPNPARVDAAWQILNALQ
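AmpC, 20 mM phosphate pH 7.0; 15 min cpd preinc, RT; start with nitrocefin (800 uM stock); A480 kinetic read, 20 s intervals, 4 min. No-enzyme wells = negative control.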
An asterisk follows results filed as active; [ ] = remark or other dose. Potency is read from the fitted curve at half-maximal effect. The list is partial; rates above refer to the full screens.

SMILES | AmpC nodet inh
O=C1N=C(N2CCOCC2)S/C1=C1\C(=O)N(Cc2ccccc2)c2ccccc21 | 3%
Cc1ccc(C(=O)Nc2nc3ccccc3c(=O)s2)cc1 | -20%
COc1cc(OC)cc(-c2nnc(SCc3c(F)cccc3Cl)o2)c1 | 39%
CC(C)C(=O)Nc1ccc(N2CCN(C(=O)c3cccs3)CC2)cc1 | 17%
COc1ccc(C2CC(C(F)(F)F)n3nc(C(=O)NCc4cn(C)nc4C)c(Cl)c3N2)cc1 (stereo unspecified) | 128%
CS(=O)(=O)N(CC(=O)NCC1CCCO1)c1ccc(F)c(Cl)c1 (stereo unspecified) | 3%
O=C(CSc1nnc(-c2cccs2)n1-c1ccccc1)N1CCCC1 | 45%
O=C(Nc1ncc(Br)s1)C1CCCN1S(=O)(=O)c1cccc2cccnc12 (stereo unspecified) | 3%
O=C(CCn1c(=O)[nH]c2ccsc2c1=O)N1CCN(c2cccc(Cl)c2)CC1 | 42%
O=C(COC(=O)c1ccccn1)NCCCc1ccccc1 | 11%
COc1cccc(-c2csc(N3CCN(C(=O)C4CCCCC4)CC3)n2)c1 | 42%
Oc1ccccc1CNCc1ccccc1O | 5%[5.75 µM]
COc1ccc(C)cc1S(=O)(=O)N1CCN(S(=O)(=O)c2cc(C)ccc2OC)CC1 | 113%
CCOCCCNC(=O)C(c1ccc(C)cc1)N1CCOCC1 (stereo unspecified) | 2%
CCC1CCCCN1C(=O)CSc1nnc(-c2ccc3c(c2)OCCO3)o1 (stereo unspecified) | 72%
COc1ccc(-c2nc3cnc(N4CCN(C)CC4)nc3n(Cc3cccs3)c2=O)cc1 | 125%
CCOC(=O)c1c(N)sc(C(=O)N2CCCC2)c1C | 4%
CCOc1ccccc1Nc1nc(N)nc(CSc2nncn2C)n1 | -4%
CCC/C=N/O | 19%
Cc1onc(-c2ccncc2)c1C(=O)O | -7%
CC1CC(C)CN(S(=O)(=O)c2ccc(C(=O)Nc3nnc(-c4cccs4)o3)cc2)C1 (stereo unspecified) | -9%
c1ccc(OCCCCn2cnc3ccccc32)cc1 | 26%
CC1CCCCC1NC(=O)C1CCN(S(=O)(=O)N2CCCCCC2)CC1 (stereo unspecified) | 15%
CN1CCN(C(=O)C2CCN(S(=O)(=O)c3ccc4c(c3)oc(=O)n4C)CC2)CC1 | 4µM*[single pt active]
c1ccc(CCCNc2ncnc3nc[nH]c23)cc1 | 6%

(listing goes on)
SMILES | AmpC nodet inh
Cc1cccc(OCc2nnc(SCC(=O)NCCc3ccccc3)o2)c1 | 8%
COCC(C)n1c(C)cc(C(=O)COC(=O)c2nc3nc(C)cc(C)n3n2)c1C (stereo unspecified) | 64%
CC(=O)N(CCO)Cc1cc2cc(C)cc(C)c2[nH]c1=O | 0%
CCn1cc(C(=O)NCCCOC)c2cc(OC)c(OC)cc2c1=O | -7%
COCCNC(=O)C(OC(=O)CC1Sc2ccccc2NC1=O)c1ccncc1 (stereo unspecified) | 14%
COc1ccc(C2=NOC(C(=O)Nc3cc(C)nn3-c3ccccc3)C2)cc1OC (stereo unspecified) | 4µM*[single pt active]
Cc1ccc(CN2CCN(C(=O)C3CCC3)CC2)cc1 | 24%
O=C(O)CCNc1ccc2c(c1)OCCO2 | -6%
CCCc1cc(=O)oc2cc(OCC(=O)OC)cc(OCC(=O)OC)c12 | 8%
COCCNc1nc(C)nc2c1nc(-c1ccccc1)n2CC1CCN(C)CC1 | 5%
N#Cc1ccc(CSc2nnc(Cc3cccs3)n2Cc2ccco2)cc1 | 15%
CN1CCc2cc3c(cc2[C@@H]1[C@@H]1OC(=O)c2c1ccc1c2OCO1)OCO3 | -4%[12.8 µM]
C/C=C/c1ccc(OCCCCN2C(=O)NC(C)(C)C2=O)c(OC)c1 | 124%
COc1ccccc1-c1nnc2sc(-c3ccc(N(C)C)cc3)nn12 | 91%
O=C1NCCCC1C(=O)N1CCN(C(=O)c2ccco2)CC1 (stereo unspecified) | -8%
N=c1c(C(=O)NCc2ccc(F)cc2)cc2c(=O)n3ccccc3nc2n1CC1CCCO1 (stereo unspecified) | 32%
CCN(CC)CCCn1c(-c2ccccc2)nc2c(N(CCOC)CCOC)nc(C)nc21 | 42%
O=C(CSc1nc2ccccc2c(=O)n1Cc1ccco1)N1CCCCCC1 | 51%
Cc1cc(NC(=O)COc2cccc(Oc3ccccc3)c2)no1 | -13%
Cc1cc(Br)ccc1NC(=O)CNC(=O)CN1C(=O)NC2(CCCCCC2)C1=O | 79%
CCOC(=O)N1CCN(c2c(NCc3ccccc3OC)c(=O)c2=O)CC1 | 4µM*[single pt active]
CN(CCNC(=O)C1CC(=O)N(c2ccc(F)c(Cl)c2)C1)Cc1ccccc1 (stereo unspecified) | 44%
c1ccc(Oc2cc(-n3cccn3)ncn2)cc1 | 0%
COC(=O)C1=C(C)OC(N)=C(C#N)C1c1ccccc1 (stereo unspecified) | -8%
CC(C)c1ccc(NC(=O)C(c2ccccc2)N2CCN(C(=O)c3ccco3)CC2)cc1 (stereo unspecified) | 93%

In a second layout: two of the compounds above.
Structure: CN(CCNC(=O)C1CC(=O)N(c2ccc(F)c(Cl)c2)C1)Cc1ccccc1 (stereo unspecified)
- AmpC nodet inh = 44%
Structure: c1ccc(Oc2cc(-n3cccn3)ncn2)cc1
- AmpC nodet inh = 0%

Next entries follow.
SMILES | AmpC nodet inh
CCCn1c(N)c(C(=O)COC(=O)c2c(C)noc2C)c(=O)n(C)c1=O | 11%
O=C(NCCc1ccc(Cl)cc1)C1CCN(S(=O)(=O)c2ccc(-n3cnnn3)cc2)CC1 | 69%
O=C(Nc1cccnc1)C1OCCc2ccccc21 (stereo unspecified) | 12%
O=c1cc(CSc2ccc(Cl)cc2)nc2nc[nH]n12 | -20%
CCCCSc1nc2c(cnn2-c2ccc(Cl)cc2)c(=O)[nH]1 | -10%
COc1ccccc1CNC(=O)C1CC(=O)N(C2CCCC2)C1 (stereo unspecified) | -3%
Cc1nn(-c2ccccc2)c(C)c1C(=O)OC/C(O)=C(\C#N)c1nc2ccccc2[nH]1 | 26%
Cc1ccc(CN2C(=O)CCC2C(=O)NCCN(CC(C)C)CC(C)C)cc1 (stereo unspecified) | 31%
COc1ccccc1N1CCN(C(=O)c2cn(-c3ccccc3)nc2-c2cccnc2)CC1 | 142%
Cc1cc2ccccc2c(=O)n1CC(=O)N(C)c1ccc(F)cc1 | 7%
CCCCOc1cc(C)nc(NCc2ccccc2)n1 | 4%
COc1cccc(-n2c(SCC(=O)NC(C)(C)C)nnc2-c2ccoc2C)c1 | 10%
Cc1ccc(N(C(=O)CNC(=O)c2ccco2)C(C(=O)NCC2CCCO2)c2ccccc2)cc1 (stereo unspecified) | 63%
O=C(CCN1C(=O)c2ccccc2S1(=O)=O)NCc1ccco1 | -3%
O=C(COc1ccc(=O)n(-c2ccccc2)n1)Nc1ccccc1 | -4%
CCC(C)(C(=O)NC1CCCCC1)N(Cc1ccco1)C(=O)CNC(=O)c1ccccc1 (stereo unspecified) | 56%
COc1ccccc1CN1C(=O)[C@@H]2C(CCC(N)=O)NC3(C(=O)Nc4c3ccc(Cl)c4C)[C@@H]2C1=O (stereo partly specified) | 106%
COC(=O)c1nc2nc(C)cc(C(F)(F)F)n2n1 | -5%
NS(=O)(=O)c1ccc(N=Nc2nc3[nH]c(=O)[nH]c(=O)c3[nH]2)cc1 | -6%[5.75 µM]
CCOc1ccc2nc(N3CCC(C(=O)N4CCN(C5CCCCC5)CC4)CC3)sc2c1 | 53%
Cc1csc(NC(=O)c2sc3nc(-c4cccs4)ccc3c2N)n1 | 25%
CCOc1ccc(N(CC(=O)NCC(C)C)S(C)(=O)=O)cc1 | 12%
Cc1cc(C)c(S(=O)(=O)Nc2ccc(O)cc2)c(C)c1 | -18%
O=C(CN(Cc1ccc(F)cc1)C(=O)c1ccco1)NCc1ccc(F)cc1 | 15%
CCC(=NCCO)c1c(O)n(C2CCCCC2)c(=O)[nH]c1=O | -3%

Other records.
SMILES | AmpC nodet inh
CCc1cc2cc3c(cc2nc1SCC(=O)Nc1cc(C)on1)OCO3 | -22%
CCOC(=O)c1c(NC(C)=O)sc2c(O)cccc12 | -2%
COc1ccc(N2C(=O)CSC2c2ccc3c(c2)OCO3)c(OC)c1 (stereo unspecified) | 45%
COc1ccc(N2CCN(Cc3cc(=O)oc4c3ccc3ccccc34)CC2)cc1 | 17%
c1ccc(Cn2nnnc2C(c2ccccc2)N2CCN(c3nc4ccccc4s3)CC2)cc1 (stereo unspecified) | 2%
O=C(Oc1cccc2c(=O)[nH]ccc12)c1ccccc1 | 8%
O=C(Cc1ccccc1)N1CCC(c2nc3ccccc3[nH]2)CC1 | -16%
CSc1nnc(NC(=O)c2ccc(C)c(S(=O)(=O)N3CCOCC3)c2)s1 | 8%
Cc1[nH]c(=O)[nH]c(=O)c1S(=O)(=O)NCCc1ccc(S(N)(=O)=O)cc1 | -1%
CC1(C)CC(O)C(C)(C)N1O (stereo unspecified) | -10%
CCOc1ccc2[nH]c(=O)c(CN(Cc3cccs3)Cc3nnnn3C(C)(C)CC)cc2c1 | 54%
COc1ccc(CN2CC(C(=O)NCc3ccccn3)CC2=O)cc1 (stereo unspecified) | 4%
CCOC(=O)c1ccc(NC(=O)CC2C(=O)N(c3ccc(F)cc3)C(=O)N2CCCOC)cc1 (stereo unspecified) | 85%
CCN(Cc1cc2ccc(C)cc2[nH]c1=O)C(=O)c1cccnc1 | -10%
C=CCn1c(SCC(N)=O)nnc1-c1cccc(Br)c1 | 14%
c1ccc2c(c1)oc1c(Nc3ccc4c(c3)OCO4)ncnc12 | 5%
Cc1ccc2c(c1)N(CCC(=O)N1CCC3(CC1)OCCO3)C(=O)C(C)O2 (stereo unspecified) | 26%
CCOC(=O)c1c(C)n(O)c2ccc(Cl)cc2c1=O | -9%
c1nc(NCCN2CCOCC2)c2c3c(sc2n1)CCCCC3 | 63%
COC(=O)c1ccccc1NC(=O)c1noc2c1CC(C(C)(C)C)CC2 (stereo unspecified) | 15%
CNc1cc(-c2ccccc2C(F)(F)F)ncn1 | 10%
O=C1CCCc2c1cc(C(=O)NCc1ccco1)c(=O)n2-c1ccccc1 | 26%
Cc1ccccc1-c1cc(Nc2ccccc2)ncn1 | 8%
CCCn1c(N2CCN(CC(=O)c3c(C)n(C)c4ccccc34)CC2)nc2c1c(=O)[nH]c(=O)n2C | 153%
O=C(CSc1nnnn1-c1ccccc1)N1CCc2ccccc2C1 | 14%

Additional results follow.
SMILES | AmpC nodet inh
COc1ccc(N2C(=O)C3CCCN3C2c2cccc(C)c2)cc1Cl (stereo unspecified) | 81%
C=CCn1c(SCc2ccccc2C#N)nnc1-c1cc(Br)ccc1O | -22%
O=S(=O)(NCC1CCCO1)c1ccc(Oc2ccccc2)cc1 (stereo unspecified) | 21%
CC(C)Cn1c(-c2ccc(F)cc2)n[nH]c1=S | -1%
O=c1[nH]c(=S)[nH]c2c1CN(CCCN1CCOCC1)CN2 | 2%[5.75 µM]
COc1c(Br)cc2c(C)c(C(=O)O)oc2c1Br | -7%
COc1ccc(-c2csc(NC(=O)c3cc(C)on3)c2C#N)cc1OC | 4%
O=C(Nc1ccccc1)NC1(C(=O)N2CCN(C(=O)c3ccco3)CC2)CCCCC1 | -4%
CCOC(=O)Cn1c(-c2ccccn2)nc2ccccc21 | 13%
Cc1ccc(S(=O)(=O)C2(C(=O)Nc3nccs3)CC2)cc1 | 4µM*[single pt active]
CCOc1ccc(-c2noc(COC)n2)cc1OC | 3%
CCn1c(SCC(=O)Nc2ccc(C(C)=O)cc2)nc2ccccc21 | -12%
Cc1ccc(S(=O)(=O)N(CC(=O)N2CCC(C(N)=O)CC2)Cc2ccc(F)cc2)cc1 | 86%
Cn1cnnc1SCC(=O)Nc1ccccc1C(=O)NC1CCCC1 | 1%
C[C@@]12CC(=O)[C@@H]3[C@@H](CCC4=CC(=O)CC[C@]43C)[C@@H]1CC=C2CC(=O)O | -2%[5.75 µM]
Cc1cccc(-c2c3c(=O)n(C)c(=O)n(C)c3cn2CC2CCCO2)c1 (stereo unspecified) | 16%

Gathered by group: those above with a furan ring, fused or not.
SMILES | AmpC nodet inh
N#Cc1ccc(CSc2nnc(Cc3cccs3)n2Cc2ccco2)cc1 | 15%
O=C1NCCCC1C(=O)N1CCN(C(=O)c2ccco2)CC1 (stereo unspecified) | -8%
O=C(CSc1nc2ccccc2c(=O)n1Cc1ccco1)N1CCCCCC1 | 51%
CC(C)c1ccc(NC(=O)C(c2ccccc2)N2CCN(C(=O)c3ccco3)CC2)cc1 (stereo unspecified) | 93%
COc1cccc(-n2c(SCC(=O)NC(C)(C)C)nnc2-c2ccoc2C)c1 | 10%
Cc1ccc(N(C(=O)CNC(=O)c2ccco2)C(C(=O)NCC2CCCO2)c2ccccc2)cc1 (stereo unspecified) | 63%
O=C(CCN1C(=O)c2ccccc2S1(=O)=O)NCc1ccco1 | -3%
CCC(C)(C(=O)NC1CCCCC1)N(Cc1ccco1)C(=O)CNC(=O)c1ccccc1 (stereo unspecified) | 56%
O=C(CN(Cc1ccc(F)cc1)C(=O)c1ccco1)NCc1ccc(F)cc1 | 15%
c1ccc2c(c1)oc1c(Nc3ccc4c(c3)OCO4)ncnc12 | 5%
O=C1CCCc2c1cc(C(=O)NCc1ccco1)c(=O)n2-c1ccccc1 | 26%
COc1c(Br)cc2c(C)c(C(=O)O)oc2c1Br | -7%
O=C(Nc1ccccc1)NC1(C(=O)N2CCN(C(=O)c3ccco3)CC2)CCCCC1 | -4%
